TRPML1 inh: inhibitors of human TRPML1 channel | activity change, negative = inhibition, % (concentration not given with the values) | TRPML1-inducible cells, Ca2+ dye fluorescence, FDSS; active compounds read low; inhibition of EC80 agonist-evoked calcium signal | Q9GZU1 | hit rate 0.02% among 390,000; in the data active means activity change below about -50%; inconclusive means about -30% to -50%; inactive means above about -30%;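 further: stimulus is agonist 54-4 at its EC80 concentration; on the % scale 0 is the no-effect control and ±100 the full control effect; the text of the record puts the active cut at -80%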
Target sequence (Q9GZU1 whole entry, looked up): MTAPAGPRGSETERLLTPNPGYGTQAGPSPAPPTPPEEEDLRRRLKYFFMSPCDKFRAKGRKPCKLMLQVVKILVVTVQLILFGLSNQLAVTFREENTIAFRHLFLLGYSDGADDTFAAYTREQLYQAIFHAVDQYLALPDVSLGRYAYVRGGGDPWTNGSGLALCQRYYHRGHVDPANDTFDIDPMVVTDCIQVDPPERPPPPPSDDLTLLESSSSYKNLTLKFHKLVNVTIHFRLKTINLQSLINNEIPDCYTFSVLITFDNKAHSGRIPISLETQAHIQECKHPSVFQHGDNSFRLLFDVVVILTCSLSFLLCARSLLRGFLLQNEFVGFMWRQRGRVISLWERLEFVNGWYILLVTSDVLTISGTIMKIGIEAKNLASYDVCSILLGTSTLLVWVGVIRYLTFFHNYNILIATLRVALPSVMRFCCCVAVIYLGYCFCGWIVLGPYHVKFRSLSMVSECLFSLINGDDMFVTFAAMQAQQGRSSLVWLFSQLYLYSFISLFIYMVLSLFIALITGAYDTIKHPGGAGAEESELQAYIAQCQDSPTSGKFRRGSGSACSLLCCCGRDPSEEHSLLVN
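Calcium fluorescence in TRPML1-DL cells induced overnight with Tet: a 110 s read after compound pin addition, then a 110 s antagonist read after challenge with 54-4 at 4 uM final (EC80).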
ClpP mod: qHTS Assay for Activators of ClpP. ATP-dependent Clp protease proteolytic subunit (Bacillus subtilis (strain 168)), P80244. purified B. subtilis ClpP, FRET peptide cleavage, 20 min. Potency, µM (series often up to 57.5 µM), without a hit: at the top dose activity change, negative = active. hit rate 1.9% among 340,000; active = well fitted falling curve with a large enough effect; inconclusive = small, poorly fitted or top-dose-only effect; inactive = no such curve, though single readings can be large or run the other way; further: potency means the concentration at half of the fitted maximal effect; the source files actives as falling curves though it sought activators and does not explain the sign; nearly all actives have a fitted effect of over 65% in size; many hits overshoot -100%
Target sequence (P80244 whole entry, looked up): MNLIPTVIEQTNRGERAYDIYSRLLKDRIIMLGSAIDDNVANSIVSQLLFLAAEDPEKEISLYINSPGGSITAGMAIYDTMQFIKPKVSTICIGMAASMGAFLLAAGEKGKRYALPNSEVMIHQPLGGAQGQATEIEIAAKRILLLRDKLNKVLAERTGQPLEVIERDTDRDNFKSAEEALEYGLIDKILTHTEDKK
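FRET quenching reversal measured ClpP activation: 10 microg/mL B. subtilis ClpP at pH 8 with the FRET-FV decapeptide, read at 430 nm after 320 nm excitation. The 20-min minus 0-min signal was scaled between DMSO/no-enzyme wells and ADEP (5.8 microM final).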
gsp ag: activates gsp, the McCune-Albright syndrome mutation | gsp mutant cells, cAMP HTRF, 30 min; control for the full effect not named in the record | Potency, µM (doses to about 76.9 µM), without a hit: top-dose activation (cAMP increase), most hits filed as activators | hit rate 0.13% among 340,000 | AID 624287; active = well fitted activation curve with a large enough effect; inconclusive = small, poorly fitted or top-dose-only effect, or another doubt; inactive = no such curve, though single readings can be large or run the other way; cell line not stated here;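 further: phosphodiesterase inhibitor Ro 20-1724 added with compounds to block cAMP breakdown; potency means the concentration at half of the fitted maximal effect; nearly all actives have a fitted effect of over 60% in size; about a fifth of the inactives were tested at one dose only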
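Cells stably selected in G418 were plated at 2000/well, grown 16-24 hr, then given compounds in DMSO with the PDE inhibitor […] (300 uM solution added) for 30 min at 37C; cAMP was read by HTRF.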
Menin MLL FP FL: menin-MLL binding inhibition, fluorescein peptide; 290,000 tested, under 10 active; Fluorescence polarization, fluorescein-MLL peptide displacement from menin; FP activity change, % at 61.4 µM; inconclusive = falling polarisation curve, or a change in total fluorescence; inactive = total fluorescence flat and polarisation flat or rising; no compound was filed as active; the % refers to the polarisation; negative = inhibition;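 further: % of control where 0% means no effect; inhibitors lower the polarisation; unlabelled MLL peptide was the positive control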
gsp antagonist: antagonizes gsp, the McCune-Albright syndrome mutation. hit rate 0.4% among 340,000. Potency, µM (series often up to 76.9 µM), for the others: at the highest dose activity change, negative = inhibition, usual class: inhibitors. gsp-mutant cells, cAMP HTRF, 30 min; control for the full effect not named in the record; active = falling curve of any shape with a large fitted effect; inconclusive = falling curve, mostly with a smaller effect; inactive = flat or rising curve; cell line not stated here;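 further: intracellular cAMP measured with PDE inhibitor Ro 20-1724 present during compound exposure; potency means the concentration at half of the fitted maximal effect; on the % scale 0 is the no-effect control and ±100 the full control effect; nearly all actives have a fitted effect of over 65% in size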
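Cells, 2000/well, grown 16–24 h in DMEM 10% FBS with 0.5 mg/ml G418, then compounds plus […] (300 uM addition stock), 30 min at 37C. cAMP read by HTRF (cAMP-d2 and anti-cAMP antibody-K in lysis buffer) after 30 min RT.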
TRPML1 ag: activates the human TRPML1 channel; Q9GZU1; hit rate 0.12% among 410,000; activation, % (no concentration beside the values); TRPML1-expressing cells, Ca2+ dye fluorescence, FDSS; host cell line not named in the record; reference of the full effect not given here; in the data active = activation above about 50%; inconclusive = about 30% to 50%; inactive = below about 30%; further: 0% is about no effect; the text of the record puts the active cut at 80%
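Cells: TRPML1-DL, 1X Tet inducer, ~16 h at 37 degrees C/5% CO2. Dye: ABD Ca8 no-wash + quencher, 45-90 min RT. Read: 10 s baseline, compound add, 110 s agonist phase; 54-4 EC80 (4uM final), 110 s antagonist phase.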
Active calls of the source: *; u = inconclusive; x = not tested or not shown; & = joins results of further samples; [ ] = remark or other dose.

SMILES | TRPML1 inh | ClpP mod | gsp ag | Menin MLL FP FL | gsp antagonist | TRPML1 ag
COc1cccc(OCC(O)CNC(C)c2ccccc2)c1 (configuration not stated) | -4 | -1.0% | u | x | -13% | 1.5
COc1ccccc1CNC(=O)CN1C(=O)COc2ccc(S(=O)(=O)N3CCCCC3)cc21 | -3&-13 | 1.4%&2.3% | -40%[inhibitor] | x | -7% | -0.6&4.6
C=CCn1c(SCC(=O)c2ccc(Cl)cc2)nnc1-c1ccc2c(c1)OCO2 | 4 | x | -11%[15.4 µM] | 2.2 | u | 4.5
O=C(COC(=O)c1cccs1)NCc1ccccc1 | 15 | -0.4% | u | -2.3 | 4% | -0.8
Oc1ccc(/C=N/Nc2ccccc2)cc1 | 15 | x | 13%[15.4 µM] | 0.4 | 3% | -0.6
CC(=O)N1CCc2cc(S(=O)(=O)NCCC(=O)NCCc3ccccc3)ccc21 | 5 | -0.7% | -9% | -1.3 | -14% | 1.0
O=C1c2cccnc2C(Nc2ccc(S(=O)(=O)N3CCCCC3)cc2)N1Cc1ccccc1 (configuration not stated) | -7 | 0.0% | -39% | 1.5 | -1% | 0.3
COc1ccc(S(=O)(=O)N(C)C)cc1NCC(=O)Nc1ccc(Br)c(C)c1 | -8 | x | -6%[15.4 µM] | -2.6 | -71% | -0.2
CC(C)(C)c1ccc(/C=C/C(=O)NCCCn2ccnc2)cc1 | 3 | -0.4% | -1%[15.4 µM] | 0.7 | 8% | -0.9
Cc1ccc(NC(=O)CCc2c(C)nn(-c3ccc(N4CCOCC4)nn3)c2C)cc1 | 22 | -2.0% | 29% | 2.0 | 3% | -0.5
c1ccc(NC2=NCCN2CC2CCCCCC2)cc1 | 1 | 1.7% | x | x | 10% | 0.1
Cn1nc(C(=O)Nc2ccc(-n3cnnn3)cc2)c2ccccc2c1=O | 13 | x | -5% | x | -3% | -0.4
Cc1cccn2c(=O)c3cc(C(=O)NCCC4=CCCCC4)n(C)c3nc12 | 10 | u | -17% | x | 7% | -0.5
Fc1ccccc1CSc1ncn[nH]1 | u | -1.7% | 8% | -1.7 | 9% | 0.6
COCCCNC(=O)CSC1=Nc2ccccc2C2=NC(CCC(=O)NCc3ccc(OC)cc3)C(=O)N12 (configuration not stated) | -5 | -17% | x | x | x | -0.7
Cn1c(Cn2nnc3ccccc32)nnc1SCC(=O)NCc1ccc2c(c1)OCO2 | 6 | -0.9% | -7% | -0.2 | 9% | 0.5
O=C(O)CCCNC(=O)CCCNC(=O)C(c1ccccc1)c1ccccc1 | 2 | 0.3% | -7% | 1.7 | 11% | 0.3
CCOC(=O)Cn1nc(C)n(-c2ccc(C)cc2)c1=O | -11 | -0.4% | -49%[inhibitor] | 1.3 | 5% | -0.5
CCN(Cc1ccccc1)C(=O)CCS(=O)(=O)c1ccc2c(c1)oc(=O)n2C | 13&-3 | 0.0%&-2.0% | 4% | x | -30% | -0.8&-0.7
CCOc1ccccc1OCCCC(=O)OCC(=O)Nc1cccc(Cl)c1 | 12 | x | -2% | 5.1 | 6% | -0.6
CC(=O)c1cccc(NC(=O)c2cnn3ccccc23)c1 | -2 | -7.0% | 3% | -2.3 | -3% | -0.2
CCc1nc2ccccc2n1CC(=O)OCC(=O)N(CC(C)C)c1c(N)n(Cc2ccccc2)c(=O)[nH]c1=O | 7 | -1.3% | -48%[inhibitor] | x | 16% | 0.1
COC(=O)c1ccccc1N=Nc1c(C)[nH][nH]c1=O | x | -1.0% | 3% | 2.2 | -7% | x
CCCS(=O)(=O)c1ncc(Cl)c(C(=O)Nc2c(C(=O)Nc3ccccc3)oc3ccccc23)n1 | 18 | -0.3% | x | x | x | 1.3
O=C(N[C@@H]1C/C=C\C[C@H](CC(=O)N(CCO)Cc2ccccc2)C(=O)N[C@@H](Cc2c[nH]c3ccccc23)COC1=O)OCC1c2ccccc2-c2ccccc21 | 1 | -3.0% | x | x | -7% | -0.9

Reprinted at random: two compounds from above
SMILES | TRPML1 inh | ClpP mod | gsp ag | Menin MLL FP FL | gsp antagonist | TRPML1 ag
Cc1cccn2c(=O)c3cc(C(=O)NCCC4=CCCCC4)n(C)c3nc12 | 10 | u | -17% | x | 7% | -0.5
O=C(O)CCCNC(=O)CCCNC(=O)C(c1ccccc1)c1ccccc1 | 2 | 0.3% | -7% | 1.7 | 11% | 0.3

(next part)
SMILES | TRPML1 inh | ClpP mod | gsp ag | Menin MLL FP FL | gsp antagonist | TRPML1 ag
CCOc1ccc(S(=O)(=O)NCCC(=O)N2CCN(c3ccc(OC)cc3)CC2)cc1 | 38 | x | -6%[15.4 µM] | -2.3 | -17% | 1.4
Cc1ccc(Nc2ncnc3sc(C)c(C)c23)cc1 | 28 | -5.0% | 3% | 5.0 | -2% | 2.3
Cn1c(CCNC(=O)C2CCCCC2)nc2cc([N+](=O)[O-])ccc21 | -9 | -1.1% | -10%[15.4 µM] | -1.5 | -10% | -0.3
COCCNC(=O)/C(C#N)=C/c1c(N2CCN(c3ccc(OC)cc3)CC2)nc2c(C)cccn2c1=O | -2 | x | u | -6.0 | -10% | 1.3
O=C(NCCCN1CCCC1=O)c1ccc(S(=O)(=O)Nc2cccc(C(F)(F)F)c2)cc1 | -3 | x | 7%[15.4 µM] | x | -9% | 0.8
CN(Cc1ccccc1)S(=O)(=O)c1nnc(NC(=O)c2ccc(F)cc2)s1 | 0 | -3.3% | u | x | -4% | -1.1
COc1ccc(/C=N/NC(=O)c2cccc(O)c2)cc1Cn1nc(C)c([N+](=O)[O-])c1C | -5 | -0.4% | -75%[inhibitor] | -0.3 | 12% | 3.5
Cc1ccc(S(=O)(=O)c2nnn3c2nc(NC2CCCCC2)c2sccc23)cc1C | 21 | u | x | x | x | 1.2
O=C(CCl)N1CCN(S(=O)(=O)c2ccc3ccccc3c2)CC1 | -12 | x | -7%[15.4 µM] | 8.4 | -5% | 2.9
CNS(=O)(=O)c1ccc(NC(=O)Nc2cccc(F)c2)cc1 | 32 | x | -1% | 1.4 | 5% | 1.8
Cc1ccc(CCNC(=O)CCc2nc3ccccc3[nH]2)cc1 | -12 | -1.3% | -12% | 2.9 | 6% | 0.2
CC(=O)OCC1OC(OC2C[C@]3(C)C(CC(O)C4C([C@](C)(CCC=C(C)C)OC5OC(CO)C(O)C(O)C5O)CC[C@]43C)[C@@]3(C)CCC(O)C(C)(C)C23)C(O[C@@H]2OC(C)C(O)C(O)C2O)C(O)C1O (some centres not stated) | -5 | -1.8% | x | x | -1% | 0.2
COc1ccc(CNC(=O)Cn2c(=O)cc(-c3ccccc3)c3c(C)nn(C)c32)cc1 | 25 | u | x | x | x | 2.9
CNC(=O)CSCc1c(F)cccc1Cl | -14 | -0.7% | -48%[inhibitor] | 0.0 | 12% | -0.1
COc1ccc(-c2noc3c2-c2nc(C4CCCCC4)sc2CC3)cc1 | 5 | -0.2% | x | 9.8 | 7% | -0.6
CC1(C)CC(=O)C=C(NC2CC(C)(C)NC(C)(C)C2)C1 | 10 | -6.3% | 8% | 3.2 | 5% | 0.7
Cc1cc(N2CCN(C)CC2)nc2ccc(NC(=S)N3CCN(c4cccc(Cl)c4)CC3)cc12 | 10 | x | -16%[15.4 µM] | -7.9 | -1% | 0.0
CC(C)c1nc(CNC(=O)CC2C(=O)NCCN2Cc2ccoc2)cs1 (configuration not stated) | -9 | x | 5%[15.4 µM] | -5.9 | 8% | 0.3
CCOC(=O)c1cnc(SCC#N)nc1N | -11 | x | -5%[15.4 µM] | 3.8 | 11% | -0.7
Cc1ccc(NC(=O)COC(=O)CNC(=O)C2CCCCC2)c(Br)c1 | 2 | x | 10%[15.4 µM] | -4.1 | -9% | -0.1
CCC1(c2ccc(F)cc2)NC(=O)N(CC(=O)Nc2ccc(S(N)(=O)=O)cc2)C1=O (configuration not stated) | 25 | -1.2% | -30%[inhibitor] | -1.4 | -5% | 1.3
O=c1[nH]c(C2CCCN(S(=O)(=O)c3ccccc3)C2)nc2c1nnn2Cc1ccc(OC(F)(F)F)cc1 (configuration not stated) | 1&-14 | -3.2%&0.4% | -2% | x | 1% | -0.3&-0.2
COc1ccc(C(=O)Nc2ccccc2NC(=O)c2ccco2)cc1OC | 6 | -1.0% | -6% | 1.0 | 4% | -1.2
COc1cccc(OC)c1C(=O)Nc1cc(C)nn1-c1nc2ccccc2[nH]1 | -6 | -15% | 13%[15.4 µM] | 1.5 | -13% | 0.0
O=C(CCCCC(=O)NN=Cc1ccc(Cl)cc1)NN=Cc1ccc(Cl)cc1 | 14 | -1.7% | -19% | x | 1% | 0.3
(next part)
SMILES | TRPML1 inh | ClpP mod | gsp ag | Menin MLL FP FL | gsp antagonist | TRPML1 ag
O=C(NC(=S)N1CCN(c2ccc(Cl)cc2[N+](=O)[O-])CC1)c1cccs1 | 7 | 2.0% | 32% | -2.2 | u | 1.6
COCc1cc(C)nc(SCC(=O)Nc2ccc(C)c(C)c2)c1C#N | 2 | 9.2% | 14% | 2.9 | 15% | 0.6
COc1ccc(Cc2n[nH]c(=S)n2-c2ccc3c(c2)OCCO3)cc1 | 8 | -2.0% | 19% | 0.0 | -1% | 0.9
COc1ccc(/C=N\NC(=O)C2C(=O)NCC2c2ccccc2)cc1O (configuration not stated) | 8 | -4.3% | 16% | 0.9 | 0% | -1.0
Cc1cccc(N2CCN(C(=O)C3CCC(=O)N(C4CC4)C3)CC2)c1C (configuration not stated) | 18 | 0.6% | 4% | -0.9 | -7% | 0.1
C=CCOc1ccc(C2=NOC(C(=O)Nc3ccc4c(c3)OCCO4)C2)cc1OC (configuration not stated) | 26 | 0.3% | 6%[15.4 µM] | -0.2 | -30% | -1.5
Cc1ccc(CNC(=O)Cc2c(C)c3c(cc(C)c4c(C)coc43)oc2=O)cc1 | -11 | -11% | x | x | x | 0.9
O=C(NCCCn1ccnc1)c1cc2c(s1)CCCC2 | -7 | -3.4% | -28% | x | 10% | 0.1
COc1ccc(CC(=O)N/N=C/c2c(C)n(C)c3ccccc23)cc1OC | -6 | -3.6% | 25% | 4.3 | 3% | -1.1
CCN1C(=O)c2cccc3c(S(=O)(=O)Nc4ccccc4OC)ccc1c23 | 2 | 1.1% | -2%[15.4 µM] | 2.8 | -31% | -0.7
Cc1cccc(N2CCN(C(=O)c3ccc(NC(=O)c4nsc5ccccc45)cc3)CC2)c1C | -11 | -16% | x | x | x | -0.7
O=C(C[C@@H]1C/C=C\C[C@@H](Cc2ccc(F)cc2)C(=O)OC[C@@H]2CCCN2C1=O)NCCO | 54 | 2.7% | x | x | 5% | -0.5
Cc1ccc(C(=O)N2CC=C(c3ccccc3)CC2)s1 | -20 | x | -39%[15.4 µM] | x | -14% | 1.6
N/C(=N\OC(=O)c1ccc(Cl)c(Cl)c1)c1cccnc1 | 7 | -0.1% | 13% | 1.0 | 18% | 1.5
Cc1cccc(OCCSc2nc3ccc(NC(=O)COc4ccccc4F)cc3s2)c1 | -6 | -5.3% | x | x | x | -0.4
